From PubChem
BJeLR viability: BJeLR cell viability loss; BJeLR (HRASV12) viability, CellTiter-Glo ATP luminescence, 48 h; reference of the scale not given here; inhibition, % (concentration not given with the values); 300,000 tested, 0.17% active;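 active = replicate mean above 50%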;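 note: 50 nL library stock added to about 25 µL; numbers are from one replicate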
RN4220 kill: S. aureus RN4220 growth inhibition | OD600, 16 h | inhibition, % (test concentration not listed) | 330,000 tested, 0.33% active;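 active = z-score of -3 or lower and OD600 up to 0.18 on both plates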;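 note: plate controls were untreated cells for no effect and reference antibiotic for full effect; stock transfer was 100 nL into about 80 µL; one replicate is shown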
PrP 5UTR inh: inhibition of PrP 5' UTR reporter expression; cell-based PrP 5' UTR mRNA reporter, plate reader; inhibition, % (concentration not given with the values); 340,000 tested, 0.35% active;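 active = every replicate at 50% or more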;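 note: 0 = median of the neutral control wells; tested in H4 reporter cells; numbers are from one replicate; inactives centre near -14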
Sa ugtP lethal: kills S. aureus RN4220 lacking UgtP | S. aureus RN4220 ugtP deletion, OD600 growth, 16 h; some inactives read as strong as hits | growth inhibition, % (test concentration not listed) | 330,000 tested, 0.54% active | AID 1259309;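 active = z-score under -3 and OD600 up to 0.15 on both plates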;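 note: plate controls were untreated wells for no effect and antibiotic for full effect; wells of about 80 µL received 100 nL stock; the first replicate is given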
Bead autofluor: compound fluorescence in toxin protease inhibitor counterscreen | compound autofluorescence counterscreen, microsphere flow cytometry; stronger effect = higher value | fluorescence intensity (concentration not given with the values) | 360,000 tested, 3.1% active | AID 624483;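 active = at least 3 SD above the mean of all compounds, about 16000 in these data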;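 note: 100 nL of 1 mM stock went into each well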
Mtb hypoxia inh: Mtb hypoxia fluorescent reporter inhibition | M. tuberculosis hypoxia-regulated fluorescent reporter, fluorescence | 300,000 tested, 0.1% active | AID 1159583 | fluorescence inhibition, % (test concentration not listed);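 active = 35 to 45% if threefold the growth effect, above 45% if 1.5-fold the growth effect; inactive = the rest, general growth blockers included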;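 note: wells of about 50 µL received 100 nL stock; 0% = vehicle wells and 100% = reference inhibitor wells; whole bacteria with a GFP reporter of the hypoxia response; strong numbers were not always called active; many hits fall short of the cut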
Mtb hypoxia inh growth: recorded beside Mtb hypoxia inh, whose call it bears; growth inhibition, %; measured here: M. tuberculosis growth (absorbance);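 0% = vehicle and 100% = reference antibiotic; read after six days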
Numbers without * were called inactive; / = not tested or not shown; & = joins results of further samples.

molecule,BJeLR viability,RN4220 kill,PrP 5UTR inh,Sa ugtP lethal,Bead autofluor,Mtb hypoxia inh,Mtb hypoxia inh growth
CCn1nc(C(=O)OCC(=O)N(CC(C)C)c2c(N)n(Cc3ccccc3)c(=O)[nH]c2=O)c2ccccc2c1=O,6,3.8,4,8,4021,4,-8
COc1ccc(NC(=O)CSc2nc3ccsc3c(=O)n2CCC(=O)O)c(OC)c1,5,2.5,0,4,5284,-2,8
COc1cc(C=NNC(=S)NCc2ccccc2)ccc1OCC#N,/,22,/,25,/,9,8
Cc1cc(Cl)ccc1NC(=O)C=NO,/,2.8,/,5,/,6,10
CCOc1ccc(-n2cc(C(=O)N3CCCCCC3)c3cc(OC)c(OC)cc3c2=O)cc1,/,-0.4,0,1,4383,/,/
CC(C)N(C)CCOC(=O)c1ccccc1Br,1,0.0,-17,6,9467,4,2
O=C(/C=C/c1ccc(-c2ccccc2[N+](=O)[O-])o1)c1ccco1,6,11,-46,-19,2239,-6,-9
COc1ccc(CNC(=O)C2CC(=O)N(c3ccc(OCC(=O)N4C(C)CCCC4C)cc3)C2)cc1 (stereo not drawn),-2,-5.5,10,4,4486,/,/
Oc1ccccc1/C=N/Nc1nn[nH]n1,-9,/,-9,/,4651,/,/
C/C(CCc1oc2ccc(Br)cc2c1-c1ccc(C)o1)=N/O,-2,/,-18,/,2262,/,/
C=CCSc1nnc(CC(OC)OC)n1-c1ccccc1,-3,1.3,2,4,3248,-2,-2
N#Cc1c2c(c(-c3ccco3)[nH]c1=O)CCCC2,12,4.2,-13,-2,8896,-9,-14
CN(NS(=O)(=O)c1ccc(Cl)cc1)c1nc(C(F)(F)F)nc2ccccc12,8,30,-40,18,3898,5,8
Cc1cc(C)c(C)c(S(=O)(=O)NCc2ccc(C(=O)N3CCCC3)cc2)c1C,-3,5.3,-3,-1,12678,16,3
Nc1nc2nccc(-c3ccc(Cl)cc3)n2n1,/,-4.4,-58,-4,5033,/,/
CCCc1c(C(=O)N/N=C/c2ccc(OC)c(OCc3ccccc3)c2)nnn1-c1nonc1N,11,/,-24,/,5639,/,/
COC(=O)NN=Cc1ccccc1,/,-5.0,/,-4,/,-7,11
C=C(C)CSc1nnc2n(C)c(=O)c3c4c(sc3n12)CCC4,-2,3.8,-14,-5,9500,3,6
CC(C)CCOc1ccc(C(=O)N2CCN(c3ncccn3)CC2)cc1,0,7.1,7,8,2881,5,-5
O=C(Nc1ccccc1N1CCN(C(=O)c2ccccc2)CC1)c1ccc([N+](=O)[O-])o1,-6,8.1,-10,21,3807,-4,8
COc1ccc(CNC(=O)C2CC(=O)N(C3CCCC3)C2)cc1 (stereo not drawn),3,1.2,-7,9,5984,-8,-15
CC(=O)c1c(C)n(-c2cccc(Cl)c2)c2ccc(O)cc12,1,4.2,-4,-7,2873,6,-10
COc1ccc(-c2nnn(CC(=O)N3CCOCC3)n2)cc1,-8,3.0,-13,3,9610,3,5
Cc1cccc(C=Nc2ccccc2C(N)=O)c1,18,1.9,-34,-2,24521*,6,4
COc1cccc(CNC(=O)CCC2CCCN(Cc3ccc(OC(F)F)cc3)C2)c1 (stereo not drawn),-6,0.4,5,7,4638,-2,5
COC(=O)c1ccccc1NC(=O)c1ccnn1C,3,6.3,-8,-4,2593,4,-6
COCCN(CCOC)S(=O)(=O)NC[C@H]1O[C@@H](n2cnc3c(N)ncnc32)[C@H](O)[C@@H]1O,/,5.5,-10,10,3035,-2,2
O=C(NC(=S)NNC(=O)c1ccccc1O)c1cccc([N+](=O)[O-])c1,-20,17,-11,5,3792,-4,-6
CCOC(=O)c1cnn(CCOC(=O)c2cccc(F)c2)c1NC(=O)c1cccc(F)c1,-3,/,0,/,7367,/,/
CC1(C)CC(=O)C2=C(C1)N(c1ccc(F)cc1)C(=O)C2(O)C(F)(F)F (stereo not drawn),-7,4.4,-6,-7,22420*,-3,-5

Single records (already shown).
Entry for COc1cccc(CNC(=O)CCC2CCCN(Cc3ccc(OC(F)F)cc3)C2)c1 (stereo not drawn) → BJeLR viability = -6; RN4220 kill = 0.4; PrP 5UTR inh = 5; Sa ugtP lethal = 7; Bead autofluor = 4638; Mtb hypoxia inh = -2; Mtb hypoxia inh growth = 5
Entry for COc1ccc(CNC(=O)C2CC(=O)N(C3CCCC3)C2)cc1 (stereo not drawn) → BJeLR viability = 3; RN4220 kill = 1.2; PrP 5UTR inh = -7; Sa ugtP lethal = 9; Bead autofluor = 5984; Mtb hypoxia inh = -8; Mtb hypoxia inh growth = -15

Carrying on:
molecule,BJeLR viability,RN4220 kill,PrP 5UTR inh,Sa ugtP lethal,Bead autofluor,Mtb hypoxia inh,Mtb hypoxia inh growth
CCOC(=O)c1c(C)[nH]c(C)c1C(=O)COC(=O)c1ccccc1O,1,9.9,-8,-3,2411,15,5
Nc1c2c(nc3ccn(Cc4ccccc4)c(=O)c13)CCC2,7,-14,-37,-4,2956,/,/
Cc1cccc2c1NC(=O)C2(O)N1CCCC(C)C1 (stereo not drawn),-2,1.2,-23,1,3879,19,5
CN(CC(=O)Nc1ccc(Cl)cc1F)C1CCS(=O)(=O)C1 (stereo not drawn),/,0.5,-59,2,5576,4,4
CCOc1cc(NC(=O)c2ccco2)c(OCC)cc1NC(=O)Cc1cccc(OC)c1,-11,-2.4,-3,-12,3622,/,/
O=C(COC(=O)CCCc1c[nH]c2ccccc12)Nc1ccc2c(c1)OCO2,7,0.5,-15,0,4369,/,/
O=[N+]([O-])c1ccccc1C=NNc1nccs1,/,4.7,/,1,/,14,3
COc1ccccc1C=NOC(=O)c1ccc(C)cc1,/,18,/,4,/,-9,-10
CCOC(=O)Nc1nc(-c2ccc(Cl)cc2Cl)cs1,4,-1.5,-26,63,2520,9,7
COc1ccc([N+](=O)[O-])cc1NS(=O)(=O)c1ccc(Cl)c(C(=O)Nc2sc3c(c2C#N)CCCCC3)c1,3,-1.3,/,19,/,7,10
COc1ccc2c(c1)CCc1c(C(=O)NCCCn3ccnc3)noc1-2,-8,4.6,-17,1,22596*,5,13
O=C(Nc1ncccn1)c1cc(-c2cccc(Br)c2)nc2ccccc12,-13,2.3,-20,-1,2142,2,4
COc1cc(CN2CCN(S(=O)(=O)c3ccc(F)cc3)CC2)cc(OC)c1OC,-5,5.1,-24,-5,9407,-1,9
CCC(=O)n1nc(-c2ccc(Cl)cc2)nc1NCc1ccccc1,13,0.3,-57,8,4955,12,6
CCc1cccc(C)c1NC(=O)COC(=O)C1CCN(S(=O)(=O)c2ccccc2)CC1,-1,1.8,-22,4,5305,0,-4
CCOC(=O)c1c(NC(=O)c2cccc(N3C(=O)CCC3=O)c2)sc2c1CCN(CC)C2,16,5.1,-19,9,4874,10,13
N#CC1=C(SCC(=O)NC2CC2)NC(=O)C(C#N)C12CCCCC2 (stereo not drawn),-1,4.5,8,1,20178*,12,0
Nc1ccc(C(=O)N/N=C/c2sc(N3CCOCC3)nc2-c2ccccc2)cc1,-5,/,-22,/,3045,/,/
COc1ccc(OC)c(N/C=C/C(=C(C#N)C#N)N(C)C)c1,1,5.0,-27,2,4188,-2,-22
CCCc1sc(N)nc1-c1ccc(C)cc1,-5,6.4,-12,40,4919,7,5
Cc1ccc(CN2CCN(N=Cc3ccc(C(F)(F)F)cc3)CC2)cc1,/,1.6,/,29,/,11,5
C=C1C(O)C(Cc2ccccc2)N(Cc2ccccc2Br)S1(=O)=O (stereo not drawn),/,15,/,10,/,14,10
O=C(Nc1ccc(Br)cc1F)C1CCN(c2nnc(-n3cccc3)s2)CC1,-8,1.4,-13,1,5804,/,/
CCOC(=O)C1CCCN(Cc2cccc(Oc3ccccc3)c2)C1 (stereo not drawn),-3,5.5,-11,19,3989,11,11
CCOC(=O)c1ccc(-c2ccc(C3Nc4ccccc4C(=O)N3O)o2)cc1 (stereo not drawn),5,3.4,-54,-15,1897,-1,-1
N#Cc1ccccc1Cn1cc(/C=N/Nc2ccc([N+](=O)[O-])cn2)c2ccccc21,5,/,12,/,4683,/,/
COC(=O)c1ccccc1NC(=O)CN(C)Cc1ccccc1,-5,2.7,-56,9,1920,-3,-2
O=C(NNC(=O)c1ccccc1-n1cccc1)c1ccc(Cl)cc1,-6,0.4,-9,-1,4862,/,/
COc1ccc(NS(=O)(=O)c2cccc3cccnc23)cc1OC,4,0.7,-41,2,4448,9,-5
CCCCNC(=O)OCCNC(=O)NC,/,3.2,-24,-1,18838*,2,3
COc1ccc(S(=O)(=O)N(CC(=O)NC2CC2)c2ccc(C)cc2)cc1,-8,1.8,3,2,5085,-6,-4
Cc1ccc(C)c(NC(=O)C2CCN(S(=O)(=O)c3ccc4c(c3)NC(=O)CO4)CC2)c1,3,-2.7,-11,1,5478,-9,0
CC(=O)OCCOc1nc(NC(C)C)nc(NC(C)C)n1,9,5.1,0,5,8121,2,2
OCCOCCOc1ccccc1OCCOCCO,-4,3.1,-5,8,2384,-4,2
O=C(O)c1ccc2c(c1)C(=O)N(Cc1ccc3c(c1)OCO3)C2=O,-3,7.4,2,9,23047*,10,5
COc1ccc(N2CCN(C(=O)CSc3ccc(C)cc3)CC2)cc1,-2,2.1,-4,14,3888,-1,8
CCN(CC)CCn1c(N=Cc2ccc(OC)c(OC)c2)nc2ccccc21,/,3.1,/,4,/,6,8
O=C(NNC(=O)c1cc(OCC(F)(F)F)ccc1OCC(F)(F)F)c1cccc(C(F)(F)F)c1,-1,24,-2,-2,2889,/,/
O=C(CC1NCCN(Cc2ccccc2)C1=O)Nc1ccccc1 (stereo not drawn),1,-3.3,-34,0,5597,-6,-10
C/C(CC1(O)C(=O)N(C)c2ccccc21)=N\O (stereo not drawn),0,/,-19,/,10704,/,/
O=C(Nc1ccccc1)C1=CC(c2coc3ccccc3c2=O)CC(OCc2ccc(CO)cc2)O1 (stereo not drawn),/,1.0&3.7,/,6&10,/,-1&15,4&7
O=C(Nc1cccc(S(=O)(=O)NC2=NCCC2)c1)c1cnc(Cl)c(Cl)c1,/,8.7,-8,4,8871,1,1
CCOc1cc(/C=N/NC(=O)CSc2nncn2C)ccc1OCc1cccc(C)c1,-12,/,-20,/,1914,/,/
O=c1[nH]c(=S)[nH]cc1Oc1ccc(Cl)cc1,/,5.2,-17,-4,3992,3,2
CC(C)C1CCC(C(=O)NC(Cc2ccccc2)C(=O)O)CC1 (stereo not drawn),/,7.8,/,3,/,-4,4
COc1ccc(CCNC(=O)COC(=O)c2cc3ccccc3oc2=O)cc1OC,/,5.0,-40,3,3758,4,3
CCC(C)C1CNCCN1CCC12CC3CC(CC(C3)C1)C2 (stereo not drawn),/,0.7,/,-2,/,8,11
CCOc1ccc(-c2csc(NC(=O)CSC3=NC(=O)CN3C(C)=O)n2)c2ccccc12,9,-4.9,-15,-1,6871,6,1
CCn1c(SCc2cccc(C(=O)O)c2)nnc1-c1ccc(Cl)cc1,2,2.0,-44,2,3963,-4,3
COc1cc(/C=C2\SC(=O)N(CC(=O)Nc3cccc(C)c3)C2=O)cc([N+](=O)[O-])c1O,/,0.4,1,4,4748,13,9
Cc1cc(C)c2c(CN3CCN(Cc4ccccc4)CC3)cc(=O)oc2c1C,1,-2.2,-18,21,4166,8,-8
Cc1cc2ccccn2c1C(=O)c1cccc(F)c1,-8,-0.7,-4,-6,3462,-15,8
CSc1nnc2c3ccccc3n(CCc3ccccc3)c2n1,19,12,24,-2,4219,7,8
O=[N+]([O-])c1cccc(S(=O)(=O)NCCc2cccs2)c1,6,4.7,-23,4,3467,16,14
O=C(CCC(=O)Nc1ccccc1)NN=Cc1ccco1,/,2.5,/,14,/,4,-1
O=C1NC(=S)N/C1=C\c1cccc([N+](=O)[O-])c1,-4,8.6,-21,-2,9698,8,8
CCN(CCNC(=O)C1CCN(S(=O)(=O)c2cccc3nsnc23)CC1)c1ccccc1,1,-3.8,-82,1,7207,/,/
CCC(=S)/C=C1\Sc2ccccc2N1CCCS(=O)(=O)O,-1,3.4,0,5,4569,6,2
CN(C(=O)C1CCN(S(=O)(=O)c2cccs2)CC1)c1ccccc1,-18,2.2,-1,4,4016,4,-3
C[C@H]1C[C@H]2[C@@H]3CCC4=CC(=O)C=C[C@]4(C)[C@@]3(Cl)[C@@H](O)C[C@]2(C)[C@@]1(O)C(=O)CO,-4,/,-5,/,6039,/,/
